HPGD block = blocks human HPGD enzyme activity | P15428 | purified HPGD, NADH fluorescence kinetic, PGE2 substrate | Potency, µM, for inactives: at the highest dose activity change, negative = inhibition, actives largely listed as inhibitors | 150,000 compounds, 4.3% hits; active = well fitted inhibition curve with a large enough effect (not every such curve was filed as active); inconclusive = small, poorly fitted or top-dose-only effect, or another doubt; inactive = no such curve, though single readings can be large or run the other way;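 note: top concentration of the series not given in the record; plate controls included wells without enzyme; inactives centre near -10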
Target sequence (P15428 whole entry, looked up): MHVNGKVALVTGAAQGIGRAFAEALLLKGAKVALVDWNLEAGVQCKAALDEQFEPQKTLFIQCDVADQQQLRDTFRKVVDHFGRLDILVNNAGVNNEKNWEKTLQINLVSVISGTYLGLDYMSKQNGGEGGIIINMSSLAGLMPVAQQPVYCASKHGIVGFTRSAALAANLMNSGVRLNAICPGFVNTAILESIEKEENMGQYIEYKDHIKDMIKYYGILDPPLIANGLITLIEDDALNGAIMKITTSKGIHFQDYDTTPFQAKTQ
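20 nM HPGD preincubated 15 min at room temperature with compound in 50 mM Tris-HCl pH 8, 0.01% Tween 20. Started with 1 mM NAD+ and 30 uM prostaglandin E2; NADH fluorescence (360/450 nm) read 5 times over 30-s intervals, last minus first.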
* = called active by the depositor; ? = inconclusive; & = joins results of further samples. % is set by controls: 0 for no effect and ±100 for the full control effect; potency is the fitted concentration of half-maximal effect.

A first look (2 entries):
SMILES	HPGD block
Cc1cc(C)n(-c2nc(NCC3CCCO3)c3c4c(sc3n2)COC(C)(C)C4)n1 (stereo unspecified)	?
COC(=O)CCC(=O)Nc1cc(S(=O)(=O)Nc2ccc(Cl)cc2)ccc1N1CCOCC1	?

This part in full (from the top)
SMILES	HPGD block
Cc1cc(C)n(-c2nc(NCC3CCCO3)c3c4c(sc3n2)COC(C)(C)C4)n1 (stereo unspecified)	?
COC(=O)CCC(=O)Nc1cc(S(=O)(=O)Nc2ccc(Cl)cc2)ccc1N1CCOCC1	?
O=C(NC1CCCCCCC1)c1ccccc1-c1ccccc1	-1%
CC(NS(=O)(=O)c1ccc(OCC(=O)N2CCOCC2)c(Cl)c1)c1ccccc1 (stereo unspecified)	-6%
O=C(O)C[C@@H](C(=O)O)c1ccccc1[N+](=O)[O-]	1%
C=CC[C@](C)(O)c1ccccc1	-2%
COc1ccc(CC(=O)N/N=C/c2cccn2-c2ccc([N+](=O)[O-])cc2)cc1OC	-3%
COc1cccc(/C=C/C(=O)OCC(=O)Nc2cccc(S(=O)(=O)N3CCCCC3)c2)c1OC	?

More results follow.
SMILES	HPGD block
Cn1c(=O)n(Cc2ccco2)c(=N)c2c3c(sc21)CCC3	-7%
CCc1ccc(OCC(=O)Nc2ccc(CN3CCCCC3)cc2)cc1	-2%
CS(=O)(=O)N1CCC(C(=O)Nc2ccccc2Sc2ccccc2)CC1	-8%
Cc1cc(NC(=O)c2ccc(NC(=O)CC(C)C)cc2)no1	-4%
O=C(Cn1c(=O)n(CCC(=O)N2CCc3ccccc3C2)c(=O)c2ccccc21)NCC1CCCO1 (stereo unspecified)	-25%
O=C(CN1CCN(c2ccccn2)CC1)N1CCc2ccccc21	-2%
COc1ccc(-c2ccc(-c3noc(-c4ccccc4)n3)c(OC)n2)cc1	?
Cc1ccccc1Cn1c(=N)n(CC(=O)c2ccco2)c2ccccc21	-1%

Next part
SMILES	HPGD block
O=C(/C=C/Nc1ccc(F)c(F)c1)c1ccc(Br)cc1	-13%
C/C(=N\NC(=O)c1ccc(NS(=O)(=O)c2cccs2)cc1)c1ccc(C(C)(C)C)cc1	-24%
CCOC(=O)C1CCN(c2c(N3CCN(c4ccccc4OC)CC3)c(=O)c2=O)CC1	?
O=C1Nc2ccc([N+](=O)[O-])cc2C1(O)N1CCCCC1 (stereo unspecified)	-5%
CCCCC[C@H](O)/C=C/C=C\CCCCCCCCCC(=O)O	-11%
CN1/C(=C\C(=O)CSc2nnc(N)s2)C(C)(C)c2ccccc21	-10%
CC1CCC(NC(=O)c2ccc(/C=C3\Oc4ccccc4N(C)C3=O)cc2)CC1 (stereo unspecified)	?
COc1ccccc1CC(=O)Nc1cc(Cl)ccc1O	-7%

Further records follow:
SMILES	HPGD block
N#Cc1cc2c(nc1SCC(=O)Nc1nccs1)CCCCC2	?
COc1ccc2cc(C(=O)COC(=O)COc3ccc4c(C)cc(=O)oc4c3)ccc2c1	?
O=C(CSc1nnc(CNc2cccc(Cl)c2)o1)OC1CCCCC1	-6%
CCN(CC(=O)Nc1ccccc1OC)C(=O)Cn1cnc2ccccc2c1=O	-1%
NC(=O)C1(N2CCCCC2)CCN(c2nc(-c3ccc(Br)cc3)cs2)CC1	-4%
Cc1ccc(S(=O)(=O)N2CCN(S(=O)(=O)c3ccc4c(c3)OCCO4)CC2)cc1	-11%
COCCN(C(=S)Nc1c(C)cc(C)cc1C)C(C)c1cccnc1 (stereo unspecified)	7.9µM*
Cc1ccc(Oc2nc(CN3CCOCC3)nc3sc4c(c23)CCC(C)C4)cc1C (stereo unspecified)	-18%

Later entries.
SMILES	HPGD block
NC(=O)CCNC(=O)c1ccc(Cl)cc1	3%
O=C(Nc1cnn(Cc2ccc(F)cc2)c1)c1cnccn1	-21%
C=C(CCC(=O)c1ccccc1)C(=O)c1ccccc1	-30%
COc1ccc(NC(=O)N(C2CCCCC2)C(C)c2cccnc2)c(OC)c1 (stereo unspecified)	-4%
CS(=O)(=O)N(CC(=O)N1CCN(Cc2ccccc2)CC1)c1ccc2c(c1)OCCO2	-3%
CCCc1nc(NCC2CCCO2)c2nnn(Cc3ccccc3)c2n1 (stereo unspecified)	-17%
Cc1[nH]c2ccccc2c(=O)c1CN1CCCCC1	-11%
O=C1C2CCCN2C(c2ccccc2)N1c1ccc(F)cc1 (stereo unspecified)	-10%

(continued)
SMILES	HPGD block
O=C(c1ccc(Cn2c(=O)[nH]c3ccccc3c2=O)cc1)N1CCN(c2ccccn2)CC1	-9%
O=C(C1CCCCC1)N1CCCc2ccccc21	-16%
COc1cccc(N2C(=O)N(c3ccccc3Cl)C3CS(=O)(=O)CC32)c1 (stereo unspecified)	-3%
Cc1ccc(S(=O)(=O)Nc2ccccc2C=Nc2cccc(C)c2C)cc1	-6%
NC(=O)NCCC1=CCCCC1	0%
CCn1nccc1C(=O)Nc1ccc(S(=O)(=O)NC23CC4CC(CC(C4)C2)C3)cc1	-13%
CCOC(=O)c1[nH]c(COC(=O)CCCOc2ccccc2)c(C(=O)OCC)c1C	-24%
CCOC(=O)C1[C@H]2C(=O)N(C(C)c3ccc(OC)cc3)C[C@]23C=C[C@H]1O3 (stereo partly specified)	-18%

(list continues)
SMILES	HPGD block
O=C(O)CCCC(=O)NCCc1cccc(Cl)c1	-4%
O=C(/C=C/c1ccccc1)Nc1nnc(SCC(=O)c2ccc3ccccc3c2)s1	?
Cn1nc(CC(=O)NCc2ccc(C(F)(F)F)cc2)c2ccccc2c1=O	5%
N=C(N)N	-5%
CC1=NN(c2ccccc2)C(=O)C1(C)[N+](=O)[O-] (stereo unspecified)	-12%
CCOC(=O)N1CCN(C(=O)C2CCCN(S(=O)(=O)c3ccc(C)cc3)C2)CC1 (stereo unspecified)	-7%
COc1ccccc1NC(=O)Nc1ccc(Cl)c(S(=O)(=O)Nc2ccccc2OC)c1	-19%
Cc1ccc(NC(=O)N2C(=O)C3(OCCO3)c3ccccc32)cc1	-6%

Remaining list, next part.
SMILES	HPGD block
O=C(O)COc1ccc(=O)n(-c2ccccc2)n1	5%
CCOc1ccc(-n2nc3c(SCCN4CCCC4)nnc(C)c3c2C)cc1	-9%
CCC(C)c1ccc(NC(=O)c2cccnc2)cc1 (stereo unspecified)	-11%
O=C(COC(=O)CCc1ccc(S(=O)(=O)N2CCOCC2)cc1)Nc1ncc(C(F)(F)F)cc1Cl	-7%
Cc1cc(OCCNCCO)cc(C)c1Cl	-8%
O=C1CCOc2cc(OCc3ccccc3)ccc21	?
O=C(COC(=O)c1ccco1)Nc1nc2ccccc2s1	-5%
CCC(NC(C)C)C(O)c1ccc(O)c(O)c1 (stereo unspecified)	-7%&-5%

Remaining list, next part:
smiles,HPGD block
COc1cc(S(=O)(=O)N2CCCCC2)ccc1NC(=O)Cc1ccccc1,-22%
O=C(Nc1cccc(F)c1)N1CC[C@@]2(CCCN(C(=O)c3cnccn3)C2)C1,-4%
O=C(Nc1nnc(CC2=CCCCC2)s1)c1cccs1,-21%
Cn1c(Cn2nnc3ccccc32)nnc1SCC(=O)Nc1nccs1,-15%
CCC(C)c1c(O)nc(SCc2ccccc2)[nH]c1=O (stereo unspecified),-6%
O=C(NCCC1=CCCCC1)c1ccc2c(c1)N(Cc1ccccc1)C(=O)CS2,-15%
CCCCCn1c(N)c(-c2nc3ccccc3s2)c2c([N+](=O)[O-])nn(CC)c(=O)c21,-11%
O=C(c1cccs1)N1CCN(CCCc2ccccc2)CC1,1%
CC1=C(C(=O)OC(C)C)C(C2CC=CCC2)NC(=O)N1 (stereo unspecified),-7%
Cn1cnnc1SCc1ccc(C#N)cc1Cl,-9%
CCOC(=O)c1ccc(N2C(=O)c3n[nH]c(C)c3C2c2ccccn2)cc1 (stereo unspecified),-5%
Cc1ccc(-n2c(NN)nc3ccccc3c2=O)c(C)c1,-5%
O=C(c1cccc(F)c1)N1CCC2(CCCN(c3ccccc3)C2)CC1,-11%
N#CCCCSc1nnnn1-c1cc(C(F)(F)F)cc(C(F)(F)F)c1,0%
O=C(CNS(=O)(=O)c1ccccc1Br)OCC(=O)N1CCc2ccccc21,4%
CC1CCN(CCCn2c(=S)[nH]c3ccc(N4CCOCC4)cc3c2=O)CC1,-9%
CCCCOC(=O)Nc1ccc(S(=O)(=O)Nc2ccc([N+](=O)[O-])cc2)cc1,-1%
COc1ccc(NC(=O)CSc2ccc3c4c(cccc24)C(=O)c2ccccc2-3)cc1,-13%
Cc1ccc(N2CCN(c3cc(C)nc4c5c(C)cc(C)nc5nn34)CC2)cc1,-11%
Cc1ccc(NC(=O)CN2CCC(C(=O)c3ccc4c(c3)OCCO4)CC2)cc1,-17%
COc1cccc(C2SCC(=O)N2c2cccc(C)c2)c1OC (stereo unspecified),-5%
CCC(C)(C)n1nnnc1C(C(C)C)N1CCSCC1 (stereo unspecified),-3%
C[C@H](NC(=O)OC(C)(C)C)c1nnc(SCC(N)=O)o1,1%
Cc1ccc(Sc2nc(-c3ccccc3)ccc2C#N)cc1,-8%
CCCn1c(-c2ccc(F)cc2)nc2c(NCCCN(CC)CC)nc(C)nc21,?

Pulled by structure from above (two):
smiles,HPGD block
CCCCOC(=O)Nc1ccc(S(=O)(=O)Nc2ccc([N+](=O)[O-])cc2)cc1,-1%
Cc1ccc(Sc2nc(-c3ccccc3)ccc2C#N)cc1,-8%

Continued.
smiles,HPGD block
C[C@@H](C(=O)O)c1ccc(N2Cc3ccccc3C2=O)cc1,-2%
O=C(NCc1ccco1)C(c1cccs1)N(C(=O)C1COc2ccccc2O1)c1cccc(O)c1 (stereo unspecified),-2%
CC1(C)S[C@H]2C(NC(=O)[C@@H](N)c3ccc(O)cc3)C(=O)N2[C@@H]1C(=O)O (stereo partly specified),-8%
COc1cccc(NC(=O)CC2(CC(=O)O)CCCC2)c1,?
CCOC(=O)C1=C(C)NC(=O)NC1c1ccc(N(C)C)cc1 (stereo unspecified),1%
COC(=O)N1CCC2(CCN(Cc3nccs3)CC2)CC1,-1%
CCOc1cc(C(=O)NC(C)COC)cc(OCC)c1OCC (stereo unspecified),-2%
Cc1c(C)n(C(=O)CSc2nc3ccccc3[nH]2)c2ccccc12,-10%
COC(=O)[C@@]1(Cc2ccccc2)[C@H]2c3cc(C(=O)N4CCCC4)n(Cc4ccccn4)c3C[C@H]2CN1C(=O)c1ccccc1,-9%
COc1cccc(CC(=O)Nc2ccccc2C(=O)N2CCOCC2)c1,-5%
COc1ccc(C(=O)NNC(=O)CCC(=O)Nc2cc(C)on2)cc1,-7%
O=C(N[C@@H](Cc1ccccc1)c1nc2ccccc2[nH]1)c1cc([N+](=O)[O-])ccc1Cl,-3%
Cc1ccc(C)c(-n2nnnc2Sc2nc([N+](=O)[O-])nn2C)c1,-4%
CC1CN(C2CCN(C(=O)COc3ccc(Cl)cc3)CC2)CC(C)O1 (stereo unspecified),-2%
O=C(OCC(=O)N1CCN(c2ccccc2)CC1)c1ccc2ncsc2c1,-6%
OCc1ccccc1CNCc1ccccc1,-9%
COc1ccc(C(C)=O)cc1COC(=O)Cc1n[nH]c(=O)c2ccccc12,22µM*
Cc1ccc(C(c2nnnn2CCc2ccccc2)N2CCC(C)CC2)cc1 (stereo unspecified),-19%
Cc1[nH]nc(SCC(=O)NC(C)c2ccccc2)c1[N+](=O)[O-] (stereo unspecified),-21%
CC(=O)c1c(C)oc2ccc(N(C(C)=O)S(=O)(=O)c3ccc(Cl)c([N+](=O)[O-])c3)cc12,-29%
CCN1CCCC(NC(=O)c2cc([N+](=O)[O-])ccc2OC)C1 (stereo unspecified),-2%
COc1cccc2c1OCC/C2=N\NC(=O)COc1ccc(C)cc1,?
COCCNC(=O)COc1ccc(Oc2ccccc2)cc1,-11%
O=C(CSc1ccc2ccccc2c1)Nc1ccc(S(=O)(=O)Nc2nccs2)cc1,-22%
Cc1ccc(-c2[nH]ncc2/C=N/n2c(COc3ccccc3C)nc3ccccc3c2=O)cc1,-3%

A second format for some results above:
COc1ccc(C(=O)NNC(=O)CCC(=O)Nc2cc(C)on2)cc1
  HPGD block = -7%
O=C(N[C@@H](Cc1ccccc1)c1nc2ccccc2[nH]1)c1cc([N+](=O)[O-])ccc1Cl
  HPGD block = -3%
Cc1ccc(C)c(-n2nnnc2Sc2nc([N+](=O)[O-])nn2C)c1
  HPGD block = -4%
CC1CN(C2CCN(C(=O)COc3ccc(Cl)cc3)CC2)CC(C)O1 (stereo unspecified)
  HPGD block = -2%

Some values from the entries so far:
HPGD block result of `Cc1ccc(-n2c(NN)nc3ccccc3c2=O)c(C)c1` : -5%
HPGD block result of `O=C(COC(=O)c1ccco1)Nc1nc2ccccc2s1` : -5%

Later entries.
smiles,HPGD block
Cn1c(=O)c2c(ncn2CC(=O)Nc2ccccc2Sc2ccccc2)n(C)c1=O,-6%
CC1(C)Cc2c(c(-c3ccco3)nc3sc4c(NCC5CCCO5)ncnc4c23)CO1 (stereo unspecified),?
CCNc1nc(NCC)n2c(SC(C(=O)Nc3cc(C)ccc3OC)c3ccccc3)nnc2n1 (stereo unspecified),-5%
Cn1ccs/c1=N\S(=O)(=O)c1ccc(C(C)(C)C)cc1,-25%
O=C(NC1CCCCC1)c1ccc(S(=O)(=O)N2CCCC2)cc1,0%
CC(C)N(CC#CCC(O)(c1ccccc1)c1ccccc1)C(C)C,-1%

Compound activity (PubChem)

A portion of the library, so the mix of outcomes need not match the whole.
